RanGTP-Imp inh: inhibitors of RanGTP-importin-beta interaction, primary screen, biochemical, FRET, CFP-Ran, YFP-importin-beta, homogeneous. inhibition, % (test concentration not listed). Ran GTPase (GTP-bound) - importin-beta complex. AID 2216, 2009. hit rate 1.1% among 300,000. cell-free CFP-Ran/YFP-importin-beta FRET ratio;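 active = most replicates above 15%; inconclusive = exactly half above 15%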;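 note: 0% = DMSO wells and 100% = Ran loaded with GDP instead of GTP; wells of about 40 µL received 100 nL stock; the first replicate is given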
UCH37 inh: inhibitors of human UCH37 deubiquitinase, primary screen, biochemical, Ub-AMC cleavage, fluorescence; hit rate 0.33% among 330,000; Ubiquitin carboxyl-terminal hydrolase isozyme L5 (Homo sapiens), Q9Y5K5; inhibition, % (test concentration not listed); purified proteasome/UCH37;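 active = mean of two replicates above 20%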;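 note: 0% = compound-free wells with enzyme and 100% = wells lacking proteasome; stock transfer was 100 nL into about 20 µL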
Target sequence (Q9Y5K5 whole entry, looked up): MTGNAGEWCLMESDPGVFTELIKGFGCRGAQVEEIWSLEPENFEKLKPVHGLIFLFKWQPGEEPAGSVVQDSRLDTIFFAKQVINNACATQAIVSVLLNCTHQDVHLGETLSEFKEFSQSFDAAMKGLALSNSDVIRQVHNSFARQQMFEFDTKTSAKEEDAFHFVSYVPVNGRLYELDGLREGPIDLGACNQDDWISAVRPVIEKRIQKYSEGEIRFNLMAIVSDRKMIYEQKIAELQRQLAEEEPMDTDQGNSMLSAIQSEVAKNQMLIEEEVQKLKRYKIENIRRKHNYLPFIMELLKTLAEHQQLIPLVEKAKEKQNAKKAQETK
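Test system – human UCH37 enzyme supplied as purified proteasome complex · Incubation – 30 min preincubation with enzyme, 25 min cleavage at room temperature · Detection – AMC fluorescence from Ub-AMC cleavage, excitation 355 nm, emission 460 nm · Benchmarks – no-proteasome wells (full inhibition) and compound-free wells (no inhibition)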
Beta apoptosis: inhibitors of cytokine-induced beta cell apoptosis, primary screen, luminescence; hit rate 0.8% among 300,000; INS-1E cytokine-induced death, ATP luminescence, 48 h; percent of positive-control rescue, neutral wells zero; protection from apoptosis, % (test concentration not listed); AID 435005, 2010;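 active = all replicates at 75% or more, or half of them and the mean; inconclusive = half reach 75% but not the mean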;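 note: 0% = cytokine-treated negative control wells and 100% = positive control rescue; higher means more ATP so stronger rescue from cytokine killing; wells of about 40 µL received 100 nL stock; the first replicate is given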
B2AR ag: beta2AR agonists driving receptor internalization, primary screen, cell-based, FAP fluorogen, flow cytometry | Beta-2 adrenergic receptor (Homo sapiens), P07550 | Am2.2-beta2AR cells; reference of the scale not given here | response, % (no concentration beside the values) | hit rate 0.43% among 340,000;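 active = response above a set limit, near 3 SD of response in nonfluorescent compounds, cut at about 42% in these data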;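 note: stock transfer was 100 nL into about 11 µL; a reference agonist was the positive control; negative values mostly stem from fluorescent compounds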
Target sequence (P07550 whole entry, looked up): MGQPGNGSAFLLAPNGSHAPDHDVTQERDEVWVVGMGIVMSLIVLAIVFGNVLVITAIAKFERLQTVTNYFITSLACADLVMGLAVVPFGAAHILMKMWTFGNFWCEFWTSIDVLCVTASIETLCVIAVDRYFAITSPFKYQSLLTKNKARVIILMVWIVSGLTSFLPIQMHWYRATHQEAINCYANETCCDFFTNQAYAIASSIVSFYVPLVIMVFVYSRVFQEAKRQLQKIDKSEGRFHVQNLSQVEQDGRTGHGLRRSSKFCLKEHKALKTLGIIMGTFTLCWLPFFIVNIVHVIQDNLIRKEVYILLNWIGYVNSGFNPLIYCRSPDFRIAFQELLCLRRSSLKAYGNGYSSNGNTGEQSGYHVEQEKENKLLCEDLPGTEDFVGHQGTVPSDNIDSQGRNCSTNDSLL
T cruzi inh: inhibitors of intracellular T. cruzi growth, primary screen, luminescence, NIH3T3 host cells; hit rate 1.4% among 300,000; AID 1885, 2009; T. cruzi beta-gal in NIH3T3, 90 h; inhibition, % (test concentration not listed);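 active = mean inhibition across valid replicates above about 55%, limit read from the data; inconclusive = mean below that limit but half or more replicates reach it; inactive = mean below it, under half of replicates reach it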;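 note: signal also drops with host cell toxicity which is not excluded here; 0% = plate median of DMSO wells and 100% = zero luminescence signal; higher percent means less beta-gal luminescence so fewer parasites; stock transfer was 50 nL into about 50 µL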
Bfl-1 A1 inh: caspase 3/7 activation in MEF A1-2A-BIM cells, primary screen, A1 inhibitor project, cell-based, luminescence, HTS. Caspase-Glo 3/7 luminescence, 3 h; percent of clofoctol response, vehicle zero. caspase activation, % (test concentration not listed). hit rate 0.066% among 330,000. AID 2462, 2010;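 active = over half of replicate activation scores above 10%, or exactly half above 10 with the replicate mean above 10; inconclusive = replicate mean below 10 yet half the replicates above 10; inactive = over half of replicates below 10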;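 note: wells of about 30 µL received 50 nL stock; many hits fall short of the cut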
Calb FLC: C. albicans growth inhibition with fluconazole, primary screen, CaCi-2 strain, Alamar Blue fluorescence; C. albicans CaCi-2 (fluconazole-resistant clinical isolate) + fluconazole, 48 h; growth inhibition, % (test concentration not listed); hit rate 0.57% among 300,000;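 active = most replicates above 75%; inconclusive = exactly half above 75%; inactive = most below 75%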;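 note: all wells also contain fluconazole at 8 µg/ml as a sub-toxic cotreatment; 0% = median of DMSO wells and 100% = median of geldanamycin control wells; wells of about 8 µL received 7.5 nL stock; the first replicate is given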
LANA-H2A inh: blockers of LANA interaction with H2A/H2B – biochemical, FP readout, HTS, primary screen | cell-free LANA-H2A/H2B peptide, fluorescence polarization | hit rate 0.6% among 320,000 | inhibition, % (no concentration beside the values) | Protein LANA1 (Human herpesvirus 8 type P (isolate GK18)), Q9QR71; in the data active = inhibition mostly above about 10%, no sharp cut-off; inactive = mostly below about 6.7%;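 note: stock transfer was 7.5 nL into about 10 µL; 0% = median of vehicle wells and 100% = median of positive control wells; one replicate is shown; the record names a cut of 25% in any replicate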
The depositor's hits bear a star; i = inactive; ? = inconclusive; . = not tested or not shown.

SMILES	RanGTP-Imp inh	UCH37 inh	Beta apoptosis	B2AR ag	T cruzi inh	Bfl-1 A1 inh	Calb FLC	LANA-H2A inh
CCOc1ccc(N(C(=O)Cn2nnc3ccccc32)C(C(=O)NC(C)(C)CC)c2cccn2C)cc1 (stereo unspecified)	-0.7	1.9	-7	-5	4	-0.2	-3	-1.8
CCOc1ccc(S(=O)(=O)Nc2ccccc2SC)c2cccnc12	-3.4	6.3	-2	-6	-6	0.0	46	3.7
Cc1ccc(NS(=O)(=O)c2ccc3c(c2)CCC(=O)N3)cc1C	1.1	4.0	10	5	-3	0.2	23	1.1
O=[N+]([O-])c1ccc(N/N=C\c2ccccc2OCc2ccccc2)cc1	-14	.	6	0	17	-0.1	0	-9.7
CSc1cccc(NC(=O)CCCNC(=O)c2ccc(Cl)cc2)c1	-3.3	.	-4	-6	-12	0.8	5	2.2
COc1cc(OC)cc(OCC(O)Cn2cnc3cc(C)c(C)cc32)c1 (stereo unspecified)	1.6	4.8	12	0	-2	0.9	-7	-3.7
Cc1ccc(Oc2ccc(C(=O)NC3CCSC3=O)cn2)cc1 (stereo unspecified)	0.7	0.4	-8	-4	-4	1.2	-1	-3.4
CCOC(=O)NC(=O)c1cn(CCN(C)C)c(=O)[nH]c1=O	-4.2	-1.6	-5	-4	-1	0.4	?	6.5
CCC1CN(C(=O)N2CCC(C(=O)NCc3cccc(OC)c3OC)CC2)c2cc(C)ccc2O1 (stereo unspecified)	0.7	-0.5	-2	10	8	-0.7	18	1.5
CC(C)(O)c1nnn(-c2ccccc2)c1C(F)(F)F	?	2.0	-15	6	-6	1.6	-6	0.3
COc1ccc(S(=O)(=O)Nc2cccc3c2O[C@H](CN(C)Cc2ccc(-c4ccccc4)cc2)[C@@H](C)CN([C@H](C)CO)C3=O)cc1	.	2.1	-14	2	.	1.6	.	1.4
COc1ccc(OC)c(NC(=O)Nc2cccc3ccccc23)c1	-1.7	-22	-1	-3	17	0.0	-1	-3.3
COc1cccc(NC(=O)Nc2nc(-c3ccc(OC)c(OC)c3)cs2)c1	0.6	.	17	33	26	-1.0	15	-1.3
O=S(=O)(Nc1ncccn1)c1ccc(NC(=S)NCCc2ccc(Cl)cc2)cc1	-2.4	1.3	-3	8	-14	0.5	20	-0.6
CCCCC(NC(C)=O)c1nc2ccccc2n1CCC (stereo unspecified)	-2.0	1.3	-4	0	-5	1.2	20	2.9
COc1ccc(C(=O)Nc2ccccc2C(=O)N(Cc2ccco2)C(C(N)=O)C(C)C)cc1 (stereo unspecified)	-1.4	3.4	-4	0	-2	-0.2	2	3.0
CCOc1ccccc1Oc1c(C)oc2c(CN3CCN(C)CC3)c(O)ccc2c1=O	.	i	-4	-2	.	-0.2	.	-3.4
CCOc1cc(C(=S)N2CCOCC2)ccc1OC(=O)c1cccc(C)c1	0.4	1.5	0	8	2	0.0	18	-2.6
CCCCC(=O)NNC(=S)NCc1ccccc1	-2.9	3.2	-1	0	6	0.1	8	2.2
CCOC(=O)/C=C/C(=O)OCC(=O)N1CCN(C(=O)c2ccco2)CC1	0.6	3.5	-14	2	-31	0.5	-9	-2.3
Cn1c(SCC(=O)Nc2ccc(N3CCOCC3)cc2)nnc1-c1ccccc1F	1.2	3.8	.	1	6	0.5	2	0.7
O=C(NC1CC1)c1cccc(Br)c1	2.8	3.2	-2	4	-22	0.4	-3	-5.2
CC(=O)c1cccc(NC(=O)c2cc(C(C)C)on2)c1	1.1	3.1	-6	13	-15	-2.6	-1	-1.2
O=S(=O)(Cc1ccc(Cl)cc1)N1CCCC1	-3.2	3.8	-2	-6	-22	1.6	-13	-2.5
COc1cc2cc(C(N)=O)c(N)nc2cc1OC	49*	i	-2	5	-1	1.7	-2	4.5

Single records, as listed above:
`O=C(NC1CC1)c1cccc(Br)c1` reads RanGTP-Imp inh = 2.8; UCH37 inh = 3.2; Beta apoptosis = -2; B2AR ag = 4; T cruzi inh = -22; Bfl-1 A1 inh = 0.4; Calb FLC = -3; LANA-H2A inh = -5.2
`COc1ccc(C(=O)Nc2ccccc2C(=O)N(Cc2ccco2)C(C(N)=O)C(C)C)cc1` (stereo unspecified) reads RanGTP-Imp inh = -1.4; UCH37 inh = 3.4; Beta apoptosis = -4; B2AR ag = 0; T cruzi inh = -2; Bfl-1 A1 inh = -0.2; Calb FLC = 2; LANA-H2A inh = 3.0

Other entries:
SMILES	RanGTP-Imp inh	UCH37 inh	Beta apoptosis	B2AR ag	T cruzi inh	Bfl-1 A1 inh	Calb FLC	LANA-H2A inh
O=[N+]([O-])c1ccccc1-c1ccc(C(=S)N2CCCC2)o1	-4.3	5.8	.	3	-7	-1.4	62	-0.3
CSc1nc(Cl)cc(Nc2ccccc2N)n1	-0.3	4.6	1	-5	-12	0.2	4	6.1
N#CNC(=Nc1ccccc1F)SCc1ccc(C(=O)O)cc1	2.0	2.1	-2	-5	-3	1.1	-4	-6.7
Cc1cc(C)nc(NC(=O)c2c(-c3c(Cl)cccc3Cl)noc2C)n1	0.0	-2.3	-3	4	1	-0.2	-8	-0.8
Cc1onc(-c2ccccc2)c1C(=O)N/N=C/c1ccccc1OC(C)C	2.0	.	2	-6	-8	-0.5	2	0.2
Cc1ccc(OCc2nnc(N)s2)cc1	9.4	0.6	-7	7	-6	-0.3	-10	4.6
O=S(=O)(Nc1cccc(-n2cnnn2)c1)c1cnc(Cl)c(Cl)c1	8.5	2.8	2	14	-17	-0.3	1	2.5
COc1ccc(N=c2oc3ccc(OC)cc3cc2-c2nc3ccccc3[nH]2)cc1	-31	1.0	44	-2	7	-0.2	0	3.2
Cc1nnc(SCC(=O)Nc2ccc3c(c2)OCO3)o1	-4.8	1.7	6	-1	-4	0.1	2	2.7
Cc1cc(C)c2[nH]c(C(=O)Nc3ccc4c(c3)OCO4)cc2c1	-2.7	-4.6	10	9	7	0.3	2	-8.3
CCOC(=O)CSc1nnc(N)s1	-4.1	3.0	-14	-5	-8	-0.2	-8	0.2
C=CCn1c(SCC(=O)NCc2ccc3c(c2)OCO3)nnc1C1COc2ccccc2O1 (stereo unspecified)	2.3	3.6	0	-4	17	-0.5	-23	-2.5
COc1ccccc1NS(=O)(=O)c1ccc(NC(C)=O)cc1	0.0	4.0	10	2	4	-0.3	4	-0.7
CCCCn1c2ccccc2c2nnc(SCC(=O)NC3=NN=C(c4ccccc4)CS3)nc21	3.9	.	60	.	18	-0.5	0	-0.8
O=C(CSc1ccc2nnc(-c3ccccn3)n2n1)Nc1ccccc1	-5.0	1.3	3	-1	-8	-0.2	-2	0.7
CCc1noc(C)c1C(=O)N1CCCC(N2CCN(c3ccc(F)cc3)CC2)C1 (stereo unspecified)	3.3	0.6	-6	0	-4	-0.2	-10	-3.0
S=c1[nH]nc(-c2ccccn2)n1/N=C/c1ccc(-c2ccccc2Cl)o1	0.9	.	-2	8	2	0.2	40	-10
CSCc1ccc(C(=O)Nc2ccc(C(N)=O)cc2)cc1	2.5	-3.8	1	3	-5	-7.0	5	-6.3
COc1ccc(-c2ccc(F)cc2)cc1[C@H]1[C@H]2C=CC[C@@H](C)[C@@H]2C(=O)N1Cc1ccccc1	2.9	5.7	-6	10	41	0.6	-7	4.7
Cc1nc(NCc2ccco2)c2oc3ccccc3c2n1	-2.1	-0.9	6	-10	-4	-0.6	-10	-2.9
Cc1cccc(C2c3[nH]c4ccccc4c3CCN2Cc2cccn2-c2ncccn2)c1 (stereo unspecified)	3.3	-3.7	19	14	58*	0.3	-6	0.6
CC(=O)Nc1ccc(NC(=O)COC(=O)c2cnccn2)cc1	3.7	4.0	-4	-4	6	0.5	32	-13
O=C(CCC(=O)Nc1ccccc1Cl)NNC(=O)NC1CCCCC1	-0.7	1.8	-6	4	4	-0.2	-3	-2.3
Cc1ccc(NS(=O)(=O)c2cccc(C(=O)NCC(c3ccco3)N3CCCCC3)c2)cc1 (stereo unspecified)	-0.8	-0.7	3	5	0	-0.1	9	0.4
O=C(COc1ccc(S(=O)(=O)N2CCOCC2)cc1)Nc1ccc(Br)cc1	.	1.4	3	-1	.	-0.8	.	3.5

Carrying on:
SMILES	RanGTP-Imp inh	UCH37 inh	Beta apoptosis	B2AR ag	T cruzi inh	Bfl-1 A1 inh	Calb FLC	LANA-H2A inh
O=C(N=Nc1c(O)[nH]c2ccccc12)c1ccco1	-0.6	13	17	15	8	-11	-2	-1.0
Cc1cc(=O)[nH]c2c1cnn2Cc1ccccc1	1.8	4.6	-6	1	4	-0.5	-4	-0.7
CC(OC(=O)/C=C/c1cccc(C(F)(F)F)c1)C(=O)NC1CCCCC1C (stereo unspecified)	-0.1	1.2	.	9	-6	0.2	-1	2.2
Cc1cc(NC(=O)CSCC(=O)N(C)Cc2cccc(Cl)c2)no1	9.1	-0.2	-8	8	-8	0.5	1	-0.6
CSc1nc2nccc(-c3ccc(Cl)cc3)n2n1	0.1	3.3	-2	-2	-3	-0.2	8	5.0
CCOC(=O)N1CCC(N2C(=O)c3ccccc3C2Nc2cc(Cl)c(OC)cc2OC)CC1 (stereo unspecified)	-6.6	0.0	-4	-18	12	0.2	3	2.3
CCN(CC(=O)NCc1cccs1)C(=O)/C=C/c1cc(Br)ccc1OC(F)F	.	1.2	-1	-11	.	?	.	0.1
CC(C)Nc1nnc(SCC(=O)/C=C2\N(C)c3ccccc3C2(C)C)s1	-0.3	8.9	5	1	18	0.0	3	1.1
COc1cccc(NC(=O)CN(C)CC(=O)NCc2ccc(F)cc2)c1	.	1.3	-10	1	.	1.6	.	4.7
Cc1ccc(C(=O)N/C(=C\c2cccs2)C(=O)NCC2CCCO2)cc1C (stereo unspecified)	0.3	6.4	1	0	2	0.4	1	-1.5
O=C1CCC(=O)N1OCCCCOc1ccccc1	0.6	-1.2	.	0	-10	-1.1	-1	2.7
COc1ccccc1N1CCN(CCOc2c(OC)cccc2OC)CC1	-1.9	1.8	-3	4	-13	-0.2	-7	5.4
Cc1ccccc1NC(=O)C1CCN(S(=O)(=O)c2cccc3nonc23)CC1	3.7	4.0	-1	-3	1	0.7	-26	3.5
N#Cc1c(-c2cccc(F)c2)cc(-c2ccccc2)nc1Br	0.3	-30	.	-9	7	-1.3	5	-1.3

Gathered by group: the compounds so far containing a thiophene ring, fused or not (2)
SMILES	RanGTP-Imp inh	UCH37 inh	Beta apoptosis	B2AR ag	T cruzi inh	Bfl-1 A1 inh	Calb FLC	LANA-H2A inh
CCN(CC(=O)NCc1cccs1)C(=O)/C=C/c1cc(Br)ccc1OC(F)F	.	1.2	-1	-11	.	?	.	0.1
Cc1ccc(C(=O)N/C(=C\c2cccs2)C(=O)NCC2CCCO2)cc1C (stereo unspecified)	0.3	6.4	1	0	2	0.4	1	-1.5
